# From PubChem
# YopH inh: blocks Yersinia enterocolitica YopH tyrosine phosphatase | fluorescence Ex485/Em525 | actives 0.16% (n = 140,000) | inhibition, %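 (about 10 µM by stock and volumes)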 | AID 898;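 active = inhibition of 50% or more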;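 also: controls were vehicle for no effect and minimum signal wells for full effect; inactives centre near -20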
# Mtb betalactam: beta-lactam sensitization of Mtb H37Rv; M. tuberculosis H37Rv growth with meropenem, percent inhibition; hits of this screen are not shown here; inhibition, % at 25 µM; actives 0.27% (n = 330,000); AID 434955;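 active = about 74% or more and at least 40 points above the plate without the antibiotic, then above 30% in a dose series; inconclusive = first-round hits that could not be retested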;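 also: growth measured after seven days incubation then overnight dye step; 0% = bacteria only wells and 100% = bacteria with antibiotic; twin plates without the antibiotic show which effects depend on it; some results filed as inactive read as strong as hits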
# RecA splice inh: inhibitors of M. tuberculosis RecA intein splicing; cell-free RecA intein splicing, fluorescence; inhibition, %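 (about 9 µM by stock and volumes)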; actives 0.75% (n = 290,000); in the data active = inhibition above about 30%; inconclusive = no clear call, values can overlap the other calls;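 also: 0% = vehicle wells and 100% = reference inhibitor control wells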
# Target sequence (P9WHJ3 whole entry, looked up, canonical isoform): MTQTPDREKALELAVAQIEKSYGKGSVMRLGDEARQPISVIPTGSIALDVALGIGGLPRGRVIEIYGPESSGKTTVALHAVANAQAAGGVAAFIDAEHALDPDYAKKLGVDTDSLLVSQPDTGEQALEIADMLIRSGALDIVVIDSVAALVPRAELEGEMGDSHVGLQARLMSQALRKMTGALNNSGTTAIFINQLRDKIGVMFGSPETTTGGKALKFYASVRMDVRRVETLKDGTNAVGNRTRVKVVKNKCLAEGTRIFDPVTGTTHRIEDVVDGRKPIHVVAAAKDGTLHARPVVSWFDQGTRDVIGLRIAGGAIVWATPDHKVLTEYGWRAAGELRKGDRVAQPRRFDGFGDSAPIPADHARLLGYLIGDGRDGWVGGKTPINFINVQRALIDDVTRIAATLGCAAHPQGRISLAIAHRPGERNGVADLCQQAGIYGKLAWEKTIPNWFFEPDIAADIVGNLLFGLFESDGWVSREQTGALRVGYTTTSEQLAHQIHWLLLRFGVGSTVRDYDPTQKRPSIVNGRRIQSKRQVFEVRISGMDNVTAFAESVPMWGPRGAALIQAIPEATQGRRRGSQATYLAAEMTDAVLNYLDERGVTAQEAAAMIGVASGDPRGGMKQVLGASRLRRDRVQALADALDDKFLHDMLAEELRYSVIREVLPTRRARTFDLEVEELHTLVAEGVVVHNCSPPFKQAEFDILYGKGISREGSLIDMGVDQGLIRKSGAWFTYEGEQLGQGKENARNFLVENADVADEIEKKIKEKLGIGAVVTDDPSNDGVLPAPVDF
# Mtb H37Rv: M. tuberculosis H37Rv growth inhibitors, H37Rv strain (AID 1626); M. tuberculosis H37Rv growth inhibition; higher % means a stronger effect; inhibition, % at 10 µM, or IC50 in µM where a hit was titrated; actives 0.95% (n = 220,000);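 active = confirmed in a dose series; inconclusive = inhibition above 80% but not taken into the dose series; inactive = below 80% or under 30% at every dose of the series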;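 also: bacteria incubated seven days before Alamar blue readout; 0% = bacteria only wells and 100% = bacteria with antibiotic wells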
# Arbovirus anti: arbovirus infection inhibition | AID 1251 | inhibition, % at 10 µM | arbovirus infection cell-based antiviral screen | actives 0.37% (n = 200,000);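 active = inhibition from about 30%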;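 also: bluetongue infection of BSR cells; cell survival read as ATP light after 72 h; 0% = infected wells without compound and 100% = uninfected wells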
# Arbovirus anti repeat: second read-out of Arbovirus anti, no call of its own (marks repeat the call); inhibition, %; measured here: 10K subset replicate screen; many hits read low in the repeat;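 first of two repeat runs on a subset; 0% = infected and 100% = uninfected wells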
# Starred values were filed as active, the others as inactive; ? = inconclusive; . = no result given. The list is partial. The share of hits here may be higher or lower than overall.
SMILES,YopH inh,Mtb betalactam,RecA splice inh,Mtb H37Rv,Arbovirus anti,others
CCN(CC)S(=O)(=O)c1cc(C(=O)Nc2cccnc2)ccc1Cl,-3,1,1.6,1%,0,
O=[N+]([O-])c1ccc(C(O)C[n+]2ccccc2)cc1 (configuration not stated),.,-5,-6.0,.,.,
COc1cccc(C2N=C(c3ccccc3C)NO2)c1OC (configuration not stated),.,6,3.5,.,.,
COc1ccc(CCNC2CC(=O)N(CCc3ccc(OC)c(OC)c3)C2=O)cc1OC (configuration not stated),-3,.,-0.1,2%,0,
COc1ccc(N2C(=O)CC(Sc3nc(C)c4c(n3)CCCC4)C2=O)cc1 (configuration not stated),-27,-2,1.7,1%,-18,
COc1cc(OC)c2ccc(=O)oc2c1C(CCN1CCCC1)c1ccc(N(C)C)cc1 (configuration not stated),.,-2,-2.4,-8%,.,
CCOC(=O)C1(Cc2cccc(Cl)c2)CCCN(C(=O)c2ccco2)C1 (configuration not stated),.,6,6.6,.,.,
COc1ccc(CCNC(=O)CSc2nnc(Cc3csc(N)n3)n2C)cc1OC,-11,-1,-14,-3%,-3,
O=c1c(NCCc2ccc(Cl)cc2)c(-c2ccccc2)c1=O,.,2,-4.4,.,.,
O=C(O)c1cccc(N2C(=O)c3cccnc3C2=O)c1,-18,2,-1.2,-4%,5,
O=S(=O)(c1ccc(S(=O)(=O)N(Cc2cccs2)CC2CCCO2)cc1)N1CCCCC1 (configuration not stated),-36,5,-4.3,-10%,3,
O=c1ccc(Cc2ccccn2)n[nH]1,-18,0,-0.3,1%,9,
COC(=O)Nc1ccc(S(=O)(=O)N2CCCC(C(=O)N3CCC(C)CC3)C2)cc1 (configuration not stated),.,1,-0.4,4%,6,
O=C(NCCCn1ccnc1)c1cc2cc([N+](=O)[O-])ccc2oc1=O,-31,-5,-0.3,0%,3,
CCC(C)(C)n1nnnc1CN1CCC(NC(=O)c2ccccc2C)CC1,-20,-5,.,-8%,4,
Nc1ccc(-c2c3ccccc3nc3ccccc23)cc1,.,11,0.7,.,.,
O=C(O)Cn1nc2ccccc2n1,-6,-9,-1.7,-4%,6,
COC(=O)C1=C(C)NC(C)=C(C(=O)OC)C1c1ccccn1,0,-4,-0.2,-3%,0,
Cc1cc(C)c(N=C2SCC(=O)N2Cc2ccco2)c(C)c1,.,0,7.8,13%,.,
CCOC(=O)CCCSc1nc(-c2ccc3c(c2)OCO3)cc(C(F)(F)F)c1C#N,-22,-2,-13,5%,-3,
Cn1c(N)c(C(=O)COC(=O)c2cc(C(F)(F)F)nc3ccccc23)c(=O)n(C)c1=O,-10,7,-1.0,.,6,
COC(=O)C(CC(=O)O)NCc1ccco1 (configuration not stated),.,0,0.4,-2%,.,
Cc1cccc(NC(=O)c2sc3ncn(CC(=O)N4CCN(c5ccccn5)CC4)c(=O)c3c2C)c1,.,-2,-1.0,.,.,
Cc1ccc2nc(Cl)c(/C=C/C(=O)c3ccco3)cc2c1,.,100,4.1,2.3µM*,.,
COc1ccc2c(=O)cc(-c3ccccc3F)oc2c1,.,4,-0.4,5%,.,
CCC(=O)Nc1cc(C(F)(F)F)ccc1N1CCCC1,.,-5,-2.5,2%,-7,
COc1ccc(-n2cc(-c3ccccc3)c3c(=O)[nH]cnc32)cc1,-22,84,-1.4,4%,-27,
Cc1ccc(Cl)cc1N1CCN(S(=O)(=O)c2ccc3c(c2)oc(=O)n3C)CC1,-34,1,2.2,-6%,8,
CCOC(=O)CCCNC(=O)CCNC(=O)c1ccc(OCC)cc1,-56,1,-0.1,-10%,3,
O=C(Nc1cccc(-n2cccn2)c1)C1CCCN(Cc2ccc(C#CCCO)cc2)C1 (configuration not stated),.,1,1.3,.,.,

# Next part (4 carried over from the part before).
SMILES,YopH inh,Mtb betalactam,RecA splice inh,Mtb H37Rv,Arbovirus anti,others
COc1ccc(-n2cc(-c3ccccc3)c3c(=O)[nH]cnc32)cc1,-22,84,-1.4,4%,-27,
Cc1ccc(Cl)cc1N1CCN(S(=O)(=O)c2ccc3c(c2)oc(=O)n3C)CC1,-34,1,2.2,-6%,8,
CCOC(=O)CCCNC(=O)CCNC(=O)c1ccc(OCC)cc1,-56,1,-0.1,-10%,3,
O=C(Nc1cccc(-n2cccn2)c1)C1CCCN(Cc2ccc(C#CCCO)cc2)C1 (configuration not stated),.,1,1.3,.,.,
CCCNC(=S)N1CCC(NC(=O)c2cccc(C)c2)CC1,.,75,-1.8,.,.,
COc1ccccc1CNC(=O)C1CCCN(S(=O)(=O)c2ccc3c(c2)CC(C)N3C(C)=O)C1 (configuration not stated),.,-2,-2.0,.,.,
CC1C(=NO)C(C)C(c2ccc(N(C)C)cc2)NC1c1ccc(N(C)C)cc1 (configuration not stated),-29,2,1.4,.,-38,
CCOc1ccc(Br)cc1C(=S)N1CCCC1,.,-2,0.1,.,.,
Cc1noc(C)c1COc1cccc(C(=O)NCc2ccccc2Cl)c1,-12,3,6.7,-5%,-12,
CCOc1ccc(OCC(O)CNC2CCN(Cc3ccccc3)CC2)cc1 (configuration not stated),-16,-10,3.5,2%,-21,
COc1cccc(C(=O)OCC(=O)NCCc2ccccc2)c1OC,.,0,-0.3,-3%,0,
N#CC1=C2N=C(N)c3ccccc3N2C2=C(C(=O)CCC2)C1c1ccc(Cl)cc1 (configuration not stated),-33,?,8.1,-9%,-5,
CC1(C)CC(=O)C/C(=N\NC(=S)NCc2ccccc2)C1,.,-8,5.9,-7%,12,
COc1ccc(OCC(=O)NCC(c2ccc(OC)cc2)N2CCCCC2)cc1 (configuration not stated),.,1,1.5,.,.,
CCC(=O)OCC(=O)Nc1cc([N+](=O)[O-])ccc1Cl,.,5,-0.8,17%,2,
COc1ccc2nc(NC(=O)C3CCCN3S(=O)(=O)c3ccc(C)cc3)sc2c1 (configuration not stated),-37,6,17,20%,10,Arbovirus anti repeat=8
CCCCNC(=O)c1ccc(CS(=O)(=O)c2ccccc2OC)o1,.,-6,0.2,.,.,
CCOc1ccc(-n2c(C)cc(C(=O)NS(=O)(=O)c3ccc(C)cc3)c2C)cc1,3,5,1.1,33%,4,
O=C(COC(=O)Cc1ccsc1)Nc1ccc(Cl)c(S(=O)(=O)N2CCOCC2)c1,-19,1,-2.4,5%,-4,
O=C(O)C1CC(=O)N(c2ccc(F)cc2)C1 (configuration not stated),-14,-2,0.0,-5%,3,
COc1ccc(NS(=O)(=O)c2ccc(-n3cnnn3)cc2)cc1OC,.,-6,2.3,.,.,
O=C(C1COc2ccccc2O1)N1CCN(Cc2ccc3c(c2)OCO3)CC1 (configuration not stated),-7,-7,-0.2,-10%,-7,
CC(=O)NC(Cc1c[nH]c2ccccc12)C(=O)OCC(=O)N1CCCCCC1 (configuration not stated),.,-2,-3.2,-5%,8,
O=C(COc1ccccc1)NCC(=O)Nc1cccc2ccccc12,-14,-1,-4.0,7%,0,
O=C(Nc1ccccc1F)N1CCCC1c1cccnc1 (configuration not stated),.,-5,.,-12%,.,
CCOc1ncnc2c1sc1nc(C)cc(C)c12,.,-11,0.9,3%,.,
Cc1cc(C)nc(/N=C(\N)Nc2ccccc2-c2ccccc2)n1,.,97,6.2,1%,-3,
O=C(CC(c1ccccc1)c1ccccc1O)NCc1ccccc1 (configuration not stated),.,-6,0.2,7%,-5,
N#Cc1c(N)nc2c(c1-c1cccnc1)CCCCC2,-24,76,.,1%,2,
CCCCn1c(=O)c(C(=O)NCCc2ccccc2)c(O)c2ccccc21,.,10,1.4,.,.,
Cc1ccc(S(C)(=O)=NC(=O)c2cc(C)on2)cc1 (configuration not stated),.,-10,-0.4,1%,.,
CC(=O)N1CCN(S(=O)(=O)c2cccc(C(=O)NC3CCCc4ccccc43)c2)CC1 (configuration not stated),4,-1,2.7,-3%,-3,
COc1ccc(-c2csc(COC(=O)C(C)(C)C)n2)cc1,.,-6,3.7,.,.,
O=C(CC1COc2ccccc2O1)Nc1ccccn1 (configuration not stated),-14,2,-3.7,-6%,-2,
Nc1nc(NCCCN2CCOCC2)nc(Nc2cccc(F)c2)c1[N+](=O)[O-],.,-14,-1.7,3%,.,
CCCNC1CCS(=O)(=O)C1 (configuration not stated),-103,5,-0.1,94%,2,
O=c1c2cnn(-c3ccc(F)cc3)c2ncn1Cc1ccccc1,10,-5,-2.5,-2%,-1,
O=C(N/N=C/c1ccccc1)c1sccc1OCc1ccc(F)cc1,-13,9,0.3,1%,-17,
CSc1ccccc1NC(=O)Nc1cccc2ccccc12,.,-1,-0.4,.,.,
NC(=O)c1ccccc1OCC(=O)Nc1ccc(Cl)c(Cl)c1,.,4,4.8,-9%,.,
C=CCNC(=O)C(=O)N/N=C/c1cccc(Br)c1,.,-1,-0.4,-8%,11,
Cc1ccccc1CNC(=O)c1ccccc1,-21,5,-1.6,5%,-9,
Cc1nnc(NC(=O)Cc2ccc(OCc3c(C)noc3C)cc2)s1,-25,-5,-4.0,4%,1,
CCOC(=O)C1=C(O)C(=O)N(Cc2ccccc2)C1,.,6,-2.8,.,.,
COc1ccc(CNC(=O)CN(C)Cc2ccc(SC)cc2)cc1,.,2,-2.4,.,.,
Cc1ccc(N/N=C2\COC(C)(C)CC2=O)cc1,-23,89,-1.5,?,-35,
CCOC(=O)CNC(=O)CSc1nc(NCc2ccccc2)nc(N(C)C)n1,-11,4,2.8,3%,-5,
O=C(N/N=C/c1oc(O)c2ccccc12)c1ccccc1O,.,3,-10,0%,4,
CC(/C=N/NC(=O)c1cc(-c2cccs2)[nH]n1)=C\c1ccccc1,-31,84,-0.3,39%,-5,
CC(C)(C)C(=O)Cn1ncc(N2CCCC2)c(Br)c1=O,-50,-7,3.9,5%,-3,
Cc1cc(OC(=O)c2cccc(C(F)(F)F)c2)c([N+](=O)[O-])c(=O)[nH]1,.,-1,-1.1,.,.,
O=C(C1CCCCC1)N1CCN(C(=O)C2CCCCC2)CC1,-14,-7,1.8,-2%,11,

# Molecules shown so far with a CF3 group, in the order listed:
SMILES,YopH inh,Mtb betalactam,RecA splice inh,Mtb H37Rv,Arbovirus anti,others
CCOC(=O)CCCSc1nc(-c2ccc3c(c2)OCO3)cc(C(F)(F)F)c1C#N,-22,-2,-13,5%,-3,
Cn1c(N)c(C(=O)COC(=O)c2cc(C(F)(F)F)nc3ccccc23)c(=O)n(C)c1=O,-10,7,-1.0,.,6,
CCC(=O)Nc1cc(C(F)(F)F)ccc1N1CCCC1,.,-5,-2.5,2%,-7,
Cc1cc(OC(=O)c2cccc(C(F)(F)F)c2)c([N+](=O)[O-])c(=O)[nH]1,.,-1,-1.1,.,.,

# 3 structures from above, sorted by number of heavy atoms, highest first.
SMILES,YopH inh,Mtb betalactam,RecA splice inh,Mtb H37Rv,Arbovirus anti,others
Nc1nc(NCCCN2CCOCC2)nc(Nc2cccc(F)c2)c1[N+](=O)[O-],.,-14,-1.7,3%,.,
O=C(COc1ccccc1)NCC(=O)Nc1cccc2ccccc12,-14,-1,-4.0,7%,0,
COc1cccc(C2N=C(c3ccccc3C)NO2)c1OC (configuration not stated),.,6,3.5,.,.,
